PKD1 inh: blocks activity of human protein kinase D1; Q15139; PKD1 kinase fluorescence polarization assay; inhibition, %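 (about 10 µM by stock and volumes)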; 200,000 compounds, 0.056% hits; AID 797;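 active = inhibition of 50% or more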;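 also: controls were vehicle for no effect and a reference inhibitor for full effect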
Target sequence (Q15139 whole entry, looked up): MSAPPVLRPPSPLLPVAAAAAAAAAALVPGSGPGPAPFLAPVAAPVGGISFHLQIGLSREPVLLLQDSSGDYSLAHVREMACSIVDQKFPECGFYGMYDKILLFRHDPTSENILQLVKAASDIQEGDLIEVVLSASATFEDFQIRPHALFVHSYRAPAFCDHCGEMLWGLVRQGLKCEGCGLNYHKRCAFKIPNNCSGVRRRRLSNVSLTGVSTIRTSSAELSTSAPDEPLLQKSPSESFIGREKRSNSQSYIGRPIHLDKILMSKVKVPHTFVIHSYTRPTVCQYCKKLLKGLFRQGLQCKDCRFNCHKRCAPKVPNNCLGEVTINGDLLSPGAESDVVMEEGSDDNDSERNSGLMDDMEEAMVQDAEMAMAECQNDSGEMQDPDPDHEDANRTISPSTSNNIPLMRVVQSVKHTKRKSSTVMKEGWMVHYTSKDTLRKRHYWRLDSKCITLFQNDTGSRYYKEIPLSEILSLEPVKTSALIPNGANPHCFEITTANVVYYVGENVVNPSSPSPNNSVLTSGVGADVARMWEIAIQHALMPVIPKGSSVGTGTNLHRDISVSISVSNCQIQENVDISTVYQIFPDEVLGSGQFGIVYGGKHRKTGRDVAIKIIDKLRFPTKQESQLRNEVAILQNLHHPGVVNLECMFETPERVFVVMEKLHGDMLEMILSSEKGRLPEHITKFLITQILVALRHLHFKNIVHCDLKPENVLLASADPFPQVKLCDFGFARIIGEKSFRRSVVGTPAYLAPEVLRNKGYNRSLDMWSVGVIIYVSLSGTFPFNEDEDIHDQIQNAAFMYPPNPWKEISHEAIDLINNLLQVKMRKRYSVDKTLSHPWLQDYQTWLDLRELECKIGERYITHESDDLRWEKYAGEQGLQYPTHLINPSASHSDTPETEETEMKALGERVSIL
INS promoter inh: TRM-6 insulin promoter activity inhibition; AID 1273; 130,000 compounds, 0.9% hits; TRM-6 cells (human fetal islet line), insulin promoter-eGFP reporter, imaging; reporter expression induced with tamoxifen; inhibition, % at 2 µM;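 active = inhibition above the mean plus 3 SD, with well images judged a real hit on visual review, cut at about 60% in these data, passing the limit was not always enough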
RGS16-Gao: modulates binding between human RGS16 and Galphao; bead-based flow cytometry RGS16-Galphao binding, fluorescence; actives lie on both sides; binding response (% of control), % at 10 µM; 220,000 compounds, 0.38% hits;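 active = below 25% or above 175%, edge rows of some plates excepted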;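 also: Galphao activated by GDP with aluminum fluoride before binding; 100% = wells without compound and 0% = beads without RGS; some results beyond the cut were filed as inactive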
HSV augment: HSV replication enhancement; maximum fold increase; HSV replication augmentation in cells, fold increase; 220,000 compounds, 0.005% hits;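 active = peak rise of 1.5-fold or more in the series; tested in PC3 cells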;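 also: first round at 10 µM; read as green reporter fluorescence; hits show the peak of a series up to 25 µM; 1 = signal of infected wells without compound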
GALR2 ag: GALR2 (human) receptor agonism. O43603. GALR2-expressing cells, agonist activation read-out. activation, %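 (tested at 5 µM)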. 140,000 compounds, 0.48% hits;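 active = above mean plus 3 SD of all compounds, about 5% in these data, not always enough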;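 also: 0% = vehicle buffer wells and 100% = reference agonist at full effect; tested in CHO reporter cells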
INS promoter inh cell count: second read-out of INS promoter inh, no call of its own (marks repeat the call); normalized cell count, %; measured here: cell count, toxicity; reference of the scale not given here;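 cells exposed to compound for 48 h; stained nuclei by imaging scaled within each plate; lower means fewer cells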
HSV augment primary fold: recorded beside HSV augment, whose call it bears; fold increase; compound at 10 µM; measured here: primary screen fold increase 10 uM; tested in PC3 cells;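 GFP signal in the first replicate; 1 = infected wells without compound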
* = called active by the depositor; i = inactive; / = no result given.

SMILES	PKD1 inh	INS promoter inh	INS promoter inh cell count	RGS16-Gao	HSV augment	HSV augment primary fold	GALR2 ag
Cc1nnc(Cl)c2nn(-c3ccccc3)c(C)c12	0	-233	123	96	i	0.93	0.6
NC(=O)C1(N2CCCCC2)CCN(C(=O)c2cccn3c(=O)c4cc(Cl)ccc4nc23)CC1	1	-150	135	103	/	/	1.1
NC(=O)N/N=C/C=C/c1ccccc1	-4	/	/	100	i	0.85	/
Cc1cccc(NC(=O)c2c(-c3ccccc3)noc2C)n1	5	17	161	132	i	0.91	/
CCOc1ccc(-n2nnc3c(=O)n(CC(=O)N4CCCc5ccccc54)cnc32)cc1	2	/	/	89	i	0.67	-0.6
O=C(Cn1cnc2c(cnn2-c2ccc(Cl)cc2)c1=O)N1CCN(c2ccccc2)CC1	5	0	110	108	i	0.85	/
Cc1cc(C)c(C(=O)COC(=O)c2cccnc2Cl)c(C)c1	-5	/	/	102	i	0.91	/
COc1ccc(N=C2C(=Nc3ccc(OC)cc3)N(c3ccc(N(C)C)cc3)C(=S)N2c2ccc(OC)cc2)cc1	-3	4	99	100	i	0.74	-1.4
O=C(Nc1ccc(C(F)(F)F)cc1)c1cc(-c2cccnc2)nc2ccc(Br)cc12	-5	/	/	95	i	0.66	-0.4
Nc1cc(N2CCOCC2)c(Cl)cc1[N+](=O)[O-]	-3	56	103	103	i	0.97	/
COc1ccc(S(=O)(=O)Cc2ccc(C(=O)N3CCCC3)o2)cc1	5	/	/	86	i	0.9	-3.2
CC(C)(C)C(=O)COC(=O)CCc1nc2ccccc2[nH]c1=O	-10	/	/	101	i	0.95	/
Cc1cc(NC(=O)CSc2nc3cc(C(=O)NCCCOC(C)C)ccc3c(=O)n2Cc2ccco2)no1	-4	33	30	64	i	0.79	/
COc1cc(NS(=O)(=O)c2ccc(Br)cc2)c(OC)cc1NC(=O)c1ccco1	-9	-33	84	205	i	1	-1.3
Clc1cccc(-c2cc3nc4c(c(N5CCN(c6cnccn6)CC5)n3n2)CCCC4)c1	-1	17	94	104	i	0.89	-0.6
O=C(c1ccoc1)N1CCC(CO)(CCc2ccccc2)CC1	3	/	/	103	i	1.2	/
CCCCNC(=O)c1cc(C)nc2ccccc12	/	/	/	104	i	0.96	/
Cc1ccc(-c2cc(C(=O)NCc3ccccn3)c3ccccc3n2)cc1C	-9	17	126	91	i	0.92	-1.3
COc1ccccc1NS(=O)(=O)c1ccccc1C#N	9	22	123	98	/	/	0.4
N#CC1=C(N)OC2=C(C(=O)CCC2)C1c1ccccc1 (configuration not stated)	-12	/	/	114	i	0.98	-0.9

Quoted from the listing:
Under GALR2 ag, `O=C(Nc1ccc(C(F)(F)F)cc1)c1cc(-c2cccnc2)nc2ccc(Br)cc12` is entered as -0.4
Under GALR2 ag, `N#CC1=C(N)OC2=C(C(=O)CCC2)C1c1ccccc1` (configuration not stated) is entered as -0.9

Back to the main list, repeating the 4 entries before the break.
SMILES	PKD1 inh	INS promoter inh	INS promoter inh cell count	RGS16-Gao	HSV augment	HSV augment primary fold	GALR2 ag
CCCCNC(=O)c1cc(C)nc2ccccc12	/	/	/	104	i	0.96	/
Cc1ccc(-c2cc(C(=O)NCc3ccccn3)c3ccccc3n2)cc1C	-9	17	126	91	i	0.92	-1.3
COc1ccccc1NS(=O)(=O)c1ccccc1C#N	9	22	123	98	/	/	0.4
N#CC1=C(N)OC2=C(C(=O)CCC2)C1c1ccccc1 (configuration not stated)	-12	/	/	114	i	0.98	-0.9
CCOC(=O)c1sc(C)c2c1NC(C)(c1cccs1)NC2=O (configuration not stated)	4	-28	116	106	i	0.97	0.8
Oc1ccc(/C=N/NC(=S)N/N=C/c2ccc(O)cc2)cc1	9	-5	122	101	i	0.86	/
CCN(NC(=O)C(O)(c1ccccc1)c1ccccc1)C(=O)c1ccccc1	1	/	/	103	i	1	-0.6
CN(C)S(=O)(=O)N1CCCC(C(=O)c2ccc(-c3ccccc3)c(F)c2)C1 (configuration not stated)	-9	/	/	118	i	0.97	/
COc1ccc(Cl)cc1NC(=O)C1CCCN(c2cc(C)nc3ncnn23)C1 (configuration not stated)	-8	9	105	101	i	0.88	-0.6
COc1ccc(OC)c(CN2C(=O)CCC2(C)C(=O)NC2CCCCCC2)c1 (configuration not stated)	-17	/	/	101	i	0.9	-0.3
Cc1cc(C(=O)CN2CCC(C)CC2)c(C)n1-c1ccccc1F	1	/	/	106	i	1.1	-1.1
COc1ccc(C2=NN(c3nc(C)cc(C)n3)C(=O)C2)cc1	4	0	97	100	i	1	/
COC(=O)c1cccc(NC(=O)CSc2nnc(COc3cccc(C)c3)n2C)c1	7	64	167	103	i	0.93	-0.3
Cc1ccc(NC=C(S(=O)(=O)c2ccccc2)S(=O)(=O)c2ccccc2)cc1	-10	/	/	92	i	1.1	-0.7
Cc1cc(C)cc(NC(=S)/C(=C(\[O-])c2ccc(Cl)s2)[n+]2cccc(C)c2)c1	-9	/	/	113	i	0.96	/
Cn1cnc2c(=O)[nH]cc([N+](=O)[O-])c21	-3	-29	164	115	i	0.91	/
CCCCSc1nc2[nH]ncc2c(=O)[nH]1	-8	0	152	100	i	1.1	1.5
CCOC(=O)c1c(C)nc2c(c(SC)nn2-c2ccccc2)c1N	12	/	/	102	i	0.83	-0.9
Cc1ccc(S(=O)(=O)NCCC(=O)NCc2ccc3c(c2)OCO3)cc1C	-8	/	/	111	i	1	-0.5
C#CCNC(=O)C1=C[C@@H](C2CC2)C[C@@H](OCCCCO)O1	/	/	/	113	i	0.93	/
Cc1cc2c(OCC(O)CNC(C)(C)C)cccc2[nH]1 (configuration not stated)	1	22	118	154	i	0.97	-0.5
Cc1ccc(S(=O)(=O)N(C)c2cc(S(=O)(=O)N3CCC(C)CC3)c(C)cc2C)cc1	4	-10	93	115	i	1	-1.6
Clc1cccc(Cl)c1-c1nnc2cccc(Cl)n12	-17	-342	46	110	i	0.76	-1.1
O=C(CCN1C(=O)C2C3C=CC(C3)C2C1=O)Nc1ccc(F)cc1 (configuration not stated)	-11	38	175	105	i	1.1	-0.6
CC(=O)NC(C)C12CC3CC(CC(CC(=O)O)(C3)C1)C2 (configuration not stated)	-11	32	106	89	i	0.88	-2.7
COc1ccc(S(=O)(=O)N2CCC(c3cc(-c4cccc5ccccc45)n[nH]3)CC2)cc1	-5	-11	125	93	i	0.88	-2.2
CC(C)=CC(=O)NCCc1ccccc1	4	50	110	105	i	1.1	-0.8
OCCCCc1nccc2c1[nH]c1ccccc12	/	/	/	104	i	0.98	/
CC(=O)c1nnn(-c2c(F)cccc2F)c1C	/	/	/	99	i	0.89	/
Cc1nn(C)cc1CNC(=O)/C=C/c1cnn(C)c1	8	/	/	105	i	0.97	-0.3
CCCCOc1nc2c(c(=O)n(C)c(=O)n2C)n1C	/	/	/	98	i	0.99	/
COc1cc(OC)cc(C(=O)N[C@H](C(=O)NC23CC4CC(CC(C4)C2)C3)C(C)C)c1	-3	-18	169	29	i	0.94	0.4
COc1ccc(N2CC(C(=O)Nc3nnc(SCC(=O)NC(C)(C)C)s3)CC2=O)cc1 (configuration not stated)	6	/	/	103	i	1	/
COc1cccc(C(=O)N2CCN(S(C)(=O)=O)CC2)c1	-4	-30	103	107	i	0.86	-0.9
CC1CN(c2nnc(NC(=O)c3ccccc3)s2)CC(C)O1 (configuration not stated)	-5	-45	109	115	i	0.93	/
O=C1CCCC2=C1C(c1ccccc1)C1C(=O)c3ccccc3C1=N2 (configuration not stated)	-10	25	94	101	i	0.71	0.1
CCC(CC)NC(=O)COC(=O)c1cccc(C)c1O	0	1	104	53	i	1	-1.2
Nc1nnc(SCC(=O)OCC(=O)c2ccccc2)s1	-4	0	142	118	i	0.93	/
CCOC(=O)c1csc(NC(=O)CSc2nnnn2-c2ccc(OCC)cc2)n1	4	-40	97	69	i	0.76	0.3
COCc1cc(C)nc(SCC(=O)Nc2cccc(C)c2)c1C#N	-7	-3	115	102	i	0.98	-0.4
O=C(COC(=O)c1ccc[nH]c1=O)NCC1CCCO1 (configuration not stated)	-6	-14	105	96	i	0.93	-1.2
C[C@@H](C(=O)Nc1ccc2ccccc2c1)[C@H]1C[C@]1(C)[C@H](NC(=O)c1cccnc1)c1ccccc1	-4	-48	75	100	i	0.75	-2.0
CCCCCN(C(=O)NC(=O)Nc1ccccc1C)S(C)(=O)=O	-6	29	134	90	i	0.98	-1.9
O=C(c1cnn2c(C(F)F)cc(-c3ccccc3)nc12)N1CCCc2ccccc21	-5	-43	99	104	i	0.91	-0.6

Just HSV augment and PKD1 inh (six entries from above):
SMILES	HSV augment	PKD1 inh
Clc1cccc(Cl)c1-c1nnc2cccc(Cl)n12	i	-17
O=C(CCN1C(=O)C2C3C=CC(C3)C2C1=O)Nc1ccc(F)cc1 (configuration not stated)	i	-11
CC(=O)NC(C)C12CC3CC(CC(CC(=O)O)(C3)C1)C2 (configuration not stated)	i	-11
COc1ccc(S(=O)(=O)N2CCC(c3cc(-c4cccc5ccccc45)n[nH]3)CC2)cc1	i	-5
CC(C)=CC(=O)NCCc1ccccc1	i	4
OCCCCc1nccc2c1[nH]c1ccccc12	i	/

(continued)
SMILES	PKD1 inh	INS promoter inh	INS promoter inh cell count	RGS16-Gao	HSV augment	HSV augment primary fold	GALR2 ag
COCc1ccc(CN2CCCC(CO)(Cc3cccc(OC)c3)C2)o1 (configuration not stated)	/	/	/	95	i	1	/
CCOC(=O)C1(Cc2cccc(Cl)c2)CCCN(C(=O)c2ccc(C)nc2)C1 (configuration not stated)	-3	/	/	94	i	1.1	/
Cc1cccc(C(=O)NNC(=O)CCC(=O)Nc2cccc(Cl)c2C)c1	-15	/	/	104	/	/	0.2
C#CCOCCOCCOCCNc1nc(N2CCN(C(=O)[C@H](CCC(=O)O)n3cc(C(N)[C@H](C)CC)nn3)CC2)nc(N2CCN(C(=O)[C@H](Cc3ccc(O)cc3)n3cc(C(N)[C@H](C)CC)nn3)CC2)n1 (some centres not stated)	-1	/	/	101	i	0.85	/
Clc1ccc(NCn2cncn2)nc1	-13	/	/	107	i	1	-1.1
CCCC(=O)Nc1ccc(C(=O)NNC(=O)c2ccco2)cc1	4	-50	81	100	i	0.92	-1.0
CC1CCCC(NC(=O)C2CCC(CNc3c(N4CCCC4)c(=O)c3=O)CC2)C1C (configuration not stated)	/	/	/	95	i	0.89	/
COc1cc(/C=C/C(=O)O)cc(S(=O)(=O)Nc2cc(Cl)c(Cl)cc2Cl)c1OC	/	/	/	62	i	1.2	/
Cc1nn(Cc2cccc(F)c2)c(C)c1NC(=O)c1c(Cl)cnn1C	-13	25	74	109	i	1.1	-0.5
CCCCN1CNC(=S)N(c2cc(C)ccc2C)C1	-3	-11	109	102	i	0.83	-1.4
CCc1ccccc1Nc1nc(N)nc(COC(=O)c2cccn2C)n1	-10	24	111	99	i	0.82	-1.1
CCOC(=O)c1cc(-c2ccc(OC)cc2)n(CCC(=O)NCCN2CCC(C)CC2)c1C	1	57	65	53	/	/	/
COC(=O)CCn1nnc(-c2cccs2)n1	2	1	172	106	i	0.86	0.5
CCCCC1(C)NC(=O)N(CC(=O)Nc2ccc(S(=O)(=O)N3CCOCC3)cc2)C1=O (configuration not stated)	-1	/	/	133	i	0.95	-0.1
O=C(Nc1ccccc1)c1cccc(S(=O)(=O)NCc2ccco2)c1	-5	0	71	98	i	0.88	-1.2
Nn1c(SCC(=O)N2CCN(S(=O)(=O)c3ccccc3)CC2)nnc1-c1cccs1	-2	-9	113	98	i	1	-1.5
COc1ccc(C2SCC(=O)N2c2c(C)n(C)n(-c3ccccc3)c2=O)cc1 (configuration not stated)	5	/	/	109	i	0.97	-2.3
Cc1ccc(N(CC(=O)NCc2cccnc2)S(C)(=O)=O)cc1C	-5	/	/	105	i	0.99	-4.7
CCOC(=O)c1cnn(-c2nc(C)cc(C)n2)c1N	-11	/	/	101	i	0.96	-0.3
O=C1C=C(c2ccc(Cl)cc2)OC2(CCCC2)O1	-2	33	70	108	i	0.95	-0.9
Cc1cccc(NC(=O)c2cc(Cl)nc3ccccc23)n1	/	/	/	100	i	1.1	/
CCOC(=O)c1cc(-c2csc(COc3ccccc3)n2)on1	/	/	/	101	i	0.91	/
COCC(C)n1c(SCC(=O)NCCC2=CCCCC2)nc2ccccc2c1=O (configuration not stated)	-1	/	/	109	i	0.94	-1.4
COc1cc(/C=C2\SC(=O)N(c3cccc(Cl)c3)C2=O)cc([N+](=O)[O-])c1O	-6	/	/	61	i	1	/
CCc1nc(N2CCN(S(C)(=O)=O)CC2)c2c3c(sc2n1)CCCC3	2	-29	114	106	i	0.92	/
CCC(=O)Nc1ccc(C(=O)NNC(=O)c2cccs2)cc1	-9	27	154	96	i	0.9	-1.8
CCn1c(SCC(=O)N2CCN(C(=O)c3ccco3)CC2)nnc1C(C)C	4	/	/	102	i	1.1	/
